RE007 growth inh – less growth of the S. pombe RE007 Vpr strain; S. pombe RE007 Vpr strain, BacTiter-Glo ATP luminescence, 24 h; control for the full effect not named in the record; Potency, µM (doses to about 92.2 µM), for inactives: at the highest dose activity change, negative = less growth; actives 0.21% (n = 360,000); AID 651644; active = well fitted falling curve with a large enough effect; inconclusive = small, poorly fitted or top-dose-only effect; inactive = no such curve, though single readings can be large or run the other way;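 further: on the % scale 0 is the no-effect control and ±100 the full control effect; nearly all actives have a fitted effect of over 50% in size; the assay follows cell death caused by Vpr and the record does not say whether a fall means rescue or toxicity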
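Fission yeast strain RE007, carrying one chromosomally integrated HIV-1 vpr copy, was seeded at OD 0.01 in PMG+AL medium with 23 nL pinned compound. After 24 h at 30 °C and 99% humidity, viability was read by BacTiter-Glo luminescence.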
Lassa entry inh – Lassa virus entry inhibition. Potency, µM (doses to about 37.9 µM), without a hit: top-dose activity change, negative = inhibition, usual class: inhibitors. actives 1.2% (n = 300,000). Lassa virus pseudotype entry inhibition, cell reporter; control for the full effect not named in the record; active means well fitted inhibition curve with a large enough effect; inconclusive means small, poorly fitted or top-dose-only effect, or effect the other way; inactive means flat fitted curve, though single readings scatter; tested in HEK293 cells; further: on the % scale 0 is the no-effect control and ±100 the full control effect; nearly all actives have a fitted effect of over 50% in size; luciferase read-out
NS1 inh – blocks influenza NS1 protein function | S. cerevisiae slowed by influenza A NS1, growth recovery by OD600 | Potency, µM (titrated, usually from 46.1 µM), for inactives: at the top dose activity, positive = more growth | actives 0.4% (n = 270,000) | AID 2326; further: actives are rising curves; nearly all actives have a fitted effect of over 50% in size
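Read-out: OD600 growth recovery of NS1-expressing budding yeast. Cells grown overnight at 30C in -URA glucose medium, washed, resuspended and diluted 1:100 in 2% galactose assay medium, pH 6.0. Same strain lacking NS1 served as positive control.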
2A StopGo – lowers the luciferase signal of an FMDV 2A StopGo reporter | human cells with a luciferase reporter of 2A StopGo recoding; control for the full effect not named in the record | Potency, µM (highest dose often 57.9 µM), without a hit: at the top dose signal change, negative = less light | actives 1.2% (n = 410,000) | AID 1159524; active = well fitted falling curve with a large enough effect; inconclusive = small, poorly fitted or top-dose-only effect; inactive = no such curve, though single readings can be large or run the other way; tested in HEK293T cells; further: on the % scale 0 is the no-effect control and ±100 the full control effect; nearly all actives have a fitted effect of over 45% in size; luciferase light after 4 h
SARS PLP yeast – inhibitors of SARS-CoV papain-like protease in yeast; AID 485353; actives 0.19% (n = 330,000); Potency, µM (doses to about 32.9 µM), without a hit: at the top dose activity, positive = growth rescue; S. cerevisiae expressing SARS-CoV PLpro, growth rescue; control for the full effect not named in the record; further: 0% is about no effect; nearly all actives have a fitted effect of over 55% in size; growth read by luminescence after 48 h
Cruzain inh Det – blocks cruzain activity in presence of Triton detergent. P25779. purified cruzain, Z-FR-AMC fluorescence, 0.01% Triton. Potency, µM, for the others: max response, negative = inhibition, most hits filed as inhibitors. actives 0.43% (n = 200,000). AID 1478; active means well fitted curve in the direction sought with a large enough effect; inconclusive means small, poorly fitted or top-dose-only effect, or another doubt; inactive means no such curve, though single readings can be large; an effect the other way counts as inactive or inconclusive;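 further: plate controls were neutral wells for no effect and buffer without enzyme for full effect; nearly all actives have a fitted effect of over 40% in size; top concentration of the series not given in the record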
Target sequence (P25779 123-467 limits assumed): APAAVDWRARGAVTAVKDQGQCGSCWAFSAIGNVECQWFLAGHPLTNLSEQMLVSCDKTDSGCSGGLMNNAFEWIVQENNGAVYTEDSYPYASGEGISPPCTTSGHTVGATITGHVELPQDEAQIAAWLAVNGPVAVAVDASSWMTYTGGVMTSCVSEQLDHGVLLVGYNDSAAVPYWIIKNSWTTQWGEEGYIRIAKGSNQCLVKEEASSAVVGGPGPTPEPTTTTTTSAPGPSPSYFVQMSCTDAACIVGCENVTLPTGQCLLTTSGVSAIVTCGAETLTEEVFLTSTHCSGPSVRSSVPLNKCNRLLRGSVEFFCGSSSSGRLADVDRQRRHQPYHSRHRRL
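In this qHTS format, compounds are incubated with 1.5 nM cruzain for 15 min at room temperature before 2 uM Z-FR-AMC is added. Release of AMC is followed at 360/450 nm, and progress is taken as the 60 s fluorescence difference.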
Marburg entry inh – blocks Marburg virus binding to or entry into cells; AID 540276; actives 1.8% (n = 300,000); Potency, µM (top dose mostly 37.8 µM), without a hit: at the top dose activity change, negative = inhibition, hits mostly inhibitors; Marburg virus pseudotyped entry inhibition, cell reporter; control for the full effect not named in the record; about a third of the inactives were read at about 46 µM; active = well fitted inhibition curve with a large enough effect; inconclusive = small, poorly fitted or top-dose-only effect, or effect the other way; inactive = flat fitted curve, though single readings scatter; tested in HEK293 cells; about a fifth of its hits are not listed in these tables; further: on the % scale 0 is the no-effect control and ±100 the full control effect; luciferase read-out
Cruzain noTriton – cruzain (T. cruzi) inhibition without detergent; purified cruzain, Z-FR-AMC fluorescence, no detergent; Potency, µM, without a hit: max response, negative = inhibition, actives largely listed as inhibitors; AID 1476; actives 2.3% (n = 200,000); P25779; active means well fitted curve in the direction sought with a large enough effect; inconclusive means small, poorly fitted or top-dose-only effect, or another doubt; inactive means no such curve, though single readings can be large; an effect the other way counts as inactive or inconclusive;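 further: plate controls were enzyme without inhibitor for no effect and buffer without enzyme for full effect; nearly all actives have a fitted effect of over 40% in size; top concentration of the series not given in the record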
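Detergent-free condition (0.00005% Triton X-100) in acetate buffer pH 5.5 with DTT. 1.5 nM enzyme and compound were pre-mixed 15 min, then 2 uM Z-FR-AMC substrate added; reaction progress from fluorescence change between first and third reads (60 s).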
Numbers without * were called inactive; ? = inconclusive; / = not tested or not shown; & = joins results of further samples; [ ] = dose if it differs, or a comment. Unless noted, the call rests on the fitted dose curve; in most records, active means well fitted rising curve with a large enough effect; inconclusive means small, poorly fitted or top-dose-only effect; inactive means no such curve, though single readings can be large or run the other way. Potency means the concentration at half of the fitted maximal effect. Outcome played no part in choosing rows; overall some 4.8% were active at least once.

Second line of a record – Cruzain inh Det | Marburg entry inh | Lassa entry inh | Cruzain noTriton | NS1 inh | RE007 growth inh | 2A StopGo | SARS PLP yeast
> O=C(N/N=C/c1cc2c(cc1Br)OCO2)C1COc2ccccc2O1 (stereo not drawn)
 : / | ? | -26% | / | / | -1% | 54%[activator] | -1%
> COCCSc1ccccc1C(=O)NCCc1ccccc1
 : / | 5% | 7% | / | 13% | -14% | 4% | -2%
> COc1ccc(C)cc1NC(=O)c1ccc(NS(=O)(=O)c2cccs2)cc1
 : / | 3%[46.1 µM] | -16%[46.1 µM] | / | 8% | -5% | 14% | 1%
> CC(C)NC(=O)C1CCN(c2nc3ccccc3nc2C(F)(F)F)CC1
 : 1.9% | / | -4%[46.1 µM] | 1% | / | / | -21% | /
> CCOC(=O)c1ccc(NC(=O)CCCc2nc(-c3ccccc3Cl)no2)cc1
 : -9.7% | 6%[46.1 µM] | -6%[46.1 µM] | -9% | / | / | 0% | /
> Cc1nc2ccccc2c(C)c1CC(=O)OC(C)C(=O)NC1(C#N)CCCCC1 (stereo not drawn)
 : / | -19%[46.1 µM] | -1% | / | / | -17% | -10% | -2%
> O=S(=O)(NCc1cccnc1)c1ccc(Cl)c(Cl)c1
 : -0.5% | -3% | 0% | -4% | 15% | -3% | 14% | ?
> O=C(CSC(=S)N1CCOCC1)Nc1nc(-c2ccccc2)c(-c2ccccc2)o1
 : 0.4% | -1% | -14% | 4% | -2% | -1% | 0% | 10%
> Cc1ccc(N2CC(C(=O)NC3CCC(C)CC3)CC2=O)cc1 (stereo not drawn)
 : / | / | / | / | 9% | 17% | 10% | -2%
> O=C(CCn1c(=O)sc2ccccc21)NC1=NCCS1
 : -0.4% | 4% | 18% | -10% | 3% | 15% | / | -15%
> O=C(Nc1ccc2c(c1)OCO2)[C@@H]1[C@@H]2C(=O)N(C3CCCCC3)C(=O)[C@@H]2C2c3ccccc3C=CN21 (stereo partly drawn)
 : -6.5% | / | / | 20µM* | 15% | / | / | 1%
> CCCN1CC=C2C(C#N)=C(N)C(C#N)(C#N)C(c3cccc(OC)c3OC)C2C1 (stereo not drawn)
 : -6.6% | -2%&-1% | -12% | 1% | 10% | -5% | -16% | -2%
> CC(C)COC(=O)N1CC(O)CC1C(=O)O (stereo not drawn)
 : 5.4% | 5% | 9% | 5% | -1% | -2%[3.69 µM] | -8% | 6%
> Cc1ccc2c(c1)C1CN(C)CCC1N2C(=O)c1cccnc1Cl (stereo not drawn)
 : / | / | / | / | -1% | -7% | -7% | -1%
> Cc1ccc(-c2cc(C(=O)Oc3ccccc3)c3cccc(C)c3n2)cc1
 : 3.2% | 1%[46.1 µM] | ? | -5% | / | / | ? | /
> CC(C)(C)C1CCc2c(sc3nc(SCC(=O)O)nc(N)c23)C1 (stereo not drawn)
 : / | -26%[46.1 µM] | ? | / | 5% | -1% | ? | 1%
> COC(=O)NNC(=O)C12CC3CC(CC(C3)C1)C2
 : -2.7% | 19% | 18% | 13% | 10% | 3% | -14% | -5%
> CCOC(=O)CC1=NN(c2ccccc2)C(=O)C1=c1sc(=C2SC(C)=C(C)N2CC)c(=O)n1CC
 : / | -22%[46.1 µM] | 18% | / | / | 12% | -12% | /
> COc1ccc(-n2ccnc(NCc3ccccc3Cl)c2=O)cc1OC
 : -2.8% | / | ? | -1% | / | / | 12% | /
> CCN(c1ccccc1)S(=O)(=O)c1cc(NC(=O)Nc2ccccc2C#N)ccc1Cl
 : -8.7% | 16% | -2% | 4% | 4% | -2% | ? | 10%
> COc1cc(C(=O)NCCC(=O)NC2CCCCC2)cc(OC)c1OC
 : / | / | / | / | 0% | 13% | -24% | -3%
> Cc1cccc(C)c1NC(=O)CSc1nnc([C@@H]2CCCN2C(=O)OC(C)(C)C)o1
 : 6.4% | 2% | ? | 1% | -12% | -7% | -11% | -1%
> CC(=O)Nc1cc2c3c(c1)CCN3C(=O)CC2
 : / | / | / | / | -1% | 13% | -14% | -4%
> COc1ccc(N2C(=O)CSC23C(=O)N(CC(=O)NC2CCCC2)c2ccccc23)cc1 (stereo not drawn)
 : / | / | / | / | -11% | 7% | -9% | 2%
> CC1(C)CC(=NO)CC(C)(C)N1
 : 5.5% | 16% | -3% | -10% | 1% | -2% | 11% | 5%
> Cc1ccc(C)c(NC(=S)NNC(=O)c2csc3c2CCC(C)C3)c1 (stereo not drawn)
 : -2.0% | ? | 8% | 10% | -3% | -6% | 55%[activator] | 2%
> O=C(Nc1cccnc1)c1ccc(N2CCOCC2)c([N+](=O)[O-])c1
 : / | / | / | / | 4% | -2% | 2% | -10%
> Cc1ccc(CNC(=O)Nc2cc(C(=O)NCc3ccc(C(C)C)cc3)ccc2N2CCCC2)cc1
 : -0.6% | / | 17%[46.1 µM] | -10% | / | / | ? | /
> O=C1CSC(=S)N1c1cccc(Br)c1
 : / | ? | ? | / | 0% | ? | ? | -3%
> CCCc1cc(=O)oc2cc(OCC(=O)NCCc3c[nH]c4ccc(OC)cc34)ccc12
 : / | / | / | / | -1% | -5% | -22% | 4%

Reprinted from the part before: 2 compounds; new compounds follow.
Second line of a record – Cruzain inh Det | Marburg entry inh | Lassa entry inh | Cruzain noTriton | NS1 inh | RE007 growth inh | 2A StopGo | SARS PLP yeast
> O=C1CSC(=S)N1c1cccc(Br)c1
 : / | ? | ? | / | 0% | ? | ? | -3%
> CCCc1cc(=O)oc2cc(OCC(=O)NCCc3c[nH]c4ccc(OC)cc34)ccc12
 : / | / | / | / | -1% | -5% | -22% | 4%
> CN(C(=O)CSc1nc2ccccc2n1CC(=O)N(C)C1CCCCC1)c1ccc(F)cc1
 : -0.1% | / | 3%[46.1 µM] | -1% | / | / | -9% | /
> O=C(Cn1cnc2c(cnn2-c2ccccc2)c1=O)N1CCN(c2ccc(F)cc2)CC1
 : 0.2% | 0% | -16% | -18% | 2% | -6% | -18% | -2%
> O=C(Cn1nnc(-c2ccccc2)n1)N/N=C/c1cccc([N+](=O)[O-])c1O
 : / | -28%[46.1 µM] | ? | / | / | 20% | -21% | -1%
> COc1ccccc1CNS(=O)(=O)c1ccc2c(c1)NC(=O)CS2
 : / | / | / | / | 8% | -1% | 0% | -2%
> O=C(CSc1ccc(-c2cccs2)nn1)NCc1ccccc1Cl
 : -10% | / | / | -10% | -17% | / | / | -27%
> Cc1ccc(S(=O)(=O)N2CCN(C(=O)CN3C(=O)c4ccc([N+](=O)[O-])cc4C3=O)CC2)c(C)c1
 : / | 14% | -4%[46.1 µM] | / | / | -13% | -20% | -1%
> CCOC(=O)c1ccc(NC(=O)c2nc(SCc3ccc(F)cc3)ncc2Cl)cc1
 : -4.4% | -1%[46.1 µM] | 9%[46.1 µM] | -17% | / | / | -14% | /
> CN(CC/C=C1/c2ccccc2CSc2ccccc21)CCCO
 : 2.7% | ? | ? | 19% | -2% | 7% | 0% | 9%
> CCCCOC(=O)C1=C(C)NC2=C(C(=O)CCC2)C1c1cc(OC)ccc1OC (stereo not drawn)
 : -1.1% | ? | 1% | ? | 2% | 14% | -27% | -1%
> C=CCNC(=O)c1onc(CSc2ccc(C)c(C)c2)c1C(=O)O
 : 1.4% | / | / | -2% | 7% | 10% | 0% | -4%
> Cc1cnccc1CN(C)Cc1nc(Cc2ccccc2Cl)no1
 : / | 3%[46.1 µM] | ? | / | 4% | -15% | ? | -1%
> CCc1nnc(NC(=O)COC(=O)CN2C(=O)c3ccccc3C2=O)s1
 : -2.0% | ? | 3% | 3% | 5% | 0% | 1% | 2%
> CCc1sc(N(C(=O)Cc2ccccc2)c2ccccc2F)nc1-c1ccc(C)cc1
 : 1.1% | 0% | / | -23% | 5% | 18% | 14% | 0%
> Cc1ccccc1CN(C)Cc1cc(=O)oc2c(C)c(C)ccc12
 : / | 4µM* | 2.8µM* | / | -31% | 8% | ? | -14%
> CC1CCc2nn(CC(=O)NCCCN3CCCCC3)cc2C1 (stereo not drawn)
 : 4.3% | / | / | -7% | ? | 2% | -20% | 2%
> O=C(O)c1ccccc1C(=O)NC1CCCCNC1=O (stereo not drawn)
 : / | -3%[46.1 µM] | -8%[46.1 µM] | / | 3% | -11% | -20% | 1%
> COc1ccc(OC)c(S(=O)(=O)N2CCC(C(=O)Nc3ccccc3)CC2)c1
 : / | ? | -1%[46.1 µM] | / | 4% | 44% | -19% | 2%
> Cc1cc(O)c(C(C)C)cc1N=C1CSC(=O)N1
 : -6.7% | 13%&13% | -2% | -24% | 11% | 6% | -7% | 5%
> CCN=C1NN=C(c2c[nH]c3ccccc23)CS1
 : / | ? | ? | / | -2% | 1% | 0% | 1%
> CCn1cc(/C=C/C(=O)Nc2ccc(C)cc2Br)cn1
 : -4.9% | 11% | ? | 7% | -18% | 17% | 9% | -3%
> CC1=C(C#N)C(NC(=O)c2ccc(C)cc2)(C(F)(F)F)C(=O)N1 (stereo not drawn)
 : 8.0% | 5% | 17% | 3% | 3% | 1% | -18% | -5%
> O=C(Nc1ccccn1)c1ccc(-c2ccccc2)cc1
 : / | 1.1µM* | ? | / | -17% | -26% | -68% | -12%
> COc1ccc(-c2noc(CCC(=O)NCc3cc(Br)ccc3OC)n2)cc1
 : -1.8% | 8% | -14% | 11% | -16% | -7% | ? | /
> c1cnc(NC2C3CC4CC(C3)CC2C4)nc1 (stereo not drawn)
 : 1.4% | 0% | -1% | 4% | -51% | -7% | -9% | -17%
> Cc1ccc(NC(=O)Cn2c(=O)c(C(F)(F)F)nc3ccccc32)c(C)c1
 : 2.9% | / | -8%[46.1 µM] | -4% | / | / | 9% | /

Bioassay records as filed in PubChem.
